IMPase Li cell – membrane-permeable IMPase blocker, potentiated with lithium; AID 1457; Potency, µM (highest dose often 59.4 µM), for the others: top-dose activity, negative = IMPase inhibition, hits mostly inhibitors; 210,000 tested, 0.35% active; CHO-M1 cells, IP1 TR-FRET (IP-One), carbachol + lithium;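 also: IP1 builds up when IMPase is blocked and the TR-FRET signal falls; potency is read from the fitted curve at half-maximal effect; plate controls were basal vehicle for no effect and high inhibitor control for full effect; nearly all actives have a fitted effect of over 50% in size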
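CHO cells stably expressing M1 receptor (2000/well, cultured 16–30 h) treated 30 min at 37C with compound plus low lithium. Cytosolic IP1 by TR-FRET (665/620 ratio and 620 channel) after 10 min lysis; AC50 by Hill fit.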
CBFb-RUNX1 inh – blocks binding between human CBF-beta and RUNX1. 230,000 tested, under 10 active. Q01196+Q13951. AID 1477. AlphaScreen CBFb-His/RUNX1-biotin binding, biochemical. Potency, µM (titrated, usually from 59.8 µM), for inactives: at the highest dose activity, negative = inhibition, usual class: inhibitors; also: % of control where 0% means no effect
Target sequence (Q01196 whole entry, looked up): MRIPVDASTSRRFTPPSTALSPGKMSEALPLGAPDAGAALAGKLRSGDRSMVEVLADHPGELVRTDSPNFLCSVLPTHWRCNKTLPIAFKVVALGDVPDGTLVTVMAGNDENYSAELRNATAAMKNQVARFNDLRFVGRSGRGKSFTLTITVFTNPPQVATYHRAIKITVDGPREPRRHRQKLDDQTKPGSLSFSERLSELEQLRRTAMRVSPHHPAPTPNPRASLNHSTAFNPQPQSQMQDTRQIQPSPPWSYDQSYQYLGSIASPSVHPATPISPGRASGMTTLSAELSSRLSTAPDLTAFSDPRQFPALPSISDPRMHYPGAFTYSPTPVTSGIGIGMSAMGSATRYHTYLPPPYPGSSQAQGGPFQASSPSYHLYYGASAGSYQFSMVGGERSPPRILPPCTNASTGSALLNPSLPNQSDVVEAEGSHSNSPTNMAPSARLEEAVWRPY
Target sequence (Q13951 whole entry, looked up): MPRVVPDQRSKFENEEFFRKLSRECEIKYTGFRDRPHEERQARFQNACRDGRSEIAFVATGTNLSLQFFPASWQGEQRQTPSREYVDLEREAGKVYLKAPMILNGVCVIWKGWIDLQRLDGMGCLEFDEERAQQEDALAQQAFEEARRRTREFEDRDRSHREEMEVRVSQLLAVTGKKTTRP
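CBFb-His/RUNX1-biotin, 30 nM each, preincubated 20 min RT; compound 15 min RT; Ni + streptavidin beads 50 ng each, 90 min RT; AlphaScreen read.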
HTT aggregate – inhibitors of mutant huntingtin aggregate formation in PC12 cells; PC12 HttQ103-GFP aggregates, Acumen cytometry, 40 h; Potency, µM (top dose mostly 46.1 µM), for the others: at the top dose activity change, negative = inhibition, most hits filed as inhibitors; 220,000 tested, 1.1% active; also: potency is read from the fitted curve at half-maximal effect; % is scaled to controls: 0 for no effect and ±100 for the full control effect; nearly all actives have a fitted effect of over 60% in size
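PC12/HTTQ103-GFP, ecdysone-inducible; teb 100 nM; cpd qHTS titration; GFP aggregates read on laser cytometer, Ex 488/Em 500-530 nm.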
Epigenetic derep – derepresses silenced GFP reporter in murine cells; murine LDR cells, GFP reporter derepression, 30 h; Potency, µM (titrated, usually from 53.9 µM), without a hit: at the highest dose GFP activation, most hits filed as activators; 280,000 tested, 0.2% active; also: potency is read from the fitted curve at half-maximal effect; % of control where 0% means no effect; nearly all actives have a fitted effect of over 60% in size
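Derepression of a silenced CMV-GFP reporter in murine LDR cells is scored by enumerating GFP-positive cells with a laser-scanning microplate cytometer after 30 hours of treatment at 37 C.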
L3MBTL1 inh – inhibitors of human L3MBTL1. Q9Y468. AlphaScreen L3MBTL1–H3K9me1 peptide binding. Potency, µM (highest dose often 57.1 µM), for inactives: at the highest dose activity, negative = inhibition, hits mostly inhibitors. 230,000 tested, 0.66% active. AID 485360; also: potency is read from the fitted curve at half-maximal effect; % is scaled to controls: 0 for no effect and ±100 for the full control effect; nearly all actives have a fitted effect of over 60% in size
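AlphaScreen assay: L3MBTL1 (50 nM final) was preincubated 30 min at room temperature with biotinylated H3(1-15)K9me1 peptide (75 nM final), then 30 min with library compounds; streptavidin donor and nickel chelate acceptor beads (10 ug/mL final) added, 30 min dark.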
Luc counter – counter-screen: inhibitors of Kinase-Glo firefly luciferase; Q27757; Kinase-Glo luciferase, ATP luminescence, 8 min; Potency, µM (top dose mostly 38.3 µM), inactives show top-dose activity change, negative = inhibition, usual class: inhibitors; 200,000 tested, 0.28% active; also: potency is read from the fitted curve at half-maximal effect; % is scaled to controls: 0 for no effect and ±100 for the full control effect; nearly all actives have a fitted effect of over 60% in size
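Substrate mix (final 50 mM imidazole pH 7.2, 50 mM KCl, 7 mM MgCl2, 10 uM ATP, 0.01% Tween 20, 0.05% BSA) plus pin-tool compound, then Kinase-Glo detection mix; 8 min ambient, luminescence read.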
The depositor's hits bear a star; ? = inconclusive; . = not tested or not shown; [ ] = remark or other dose. Calls follow the shape of the dose curve; as a rule, active = well fitted curve in the direction sought with a large enough effect; inconclusive = small, poorly fitted or top-dose-only effect, or another doubt; inactive = no such curve, though single readings can be large; an effect the other way counts as inactive or inconclusive.

#1 C=C(C)C1Cc2c(C)nn(-c3cccc4ccccc34)c2C1 (configuration not stated)
#2 CCOC(=O)c1cnc(-n2nc(C)cc2C)nc1NNc1cc(-c2ccccc2)nc(C)n1
#3 O=C(OCC(=O)c1ccco1)c1ccc2ncsc2c1
#4 CCOC(=O)c1sc2c(c1C)C(c1cccs1)C1=C(CCCC1=O)N2 (configuration not stated)
#5 O=C(c1ccco1)N1CCN(c2nc(C(F)(F)F)nc3c2nnn3Cc2ccccc2)CC1
#6 COc1ccc(-c2ccc(C(C)=O)cc2)cc1C1C2C=CCCC2(C)C(=O)N1Cc1ccccc1 (configuration not stated)
#7 COc1ccc(N(Cc2ccccc2)S(=O)(=O)c2ccc(C)cc2)cc1
#8 Cc1ccc(C(c2nnnn2Cc2cccs2)N2CCN(Cc3ccc4c(c3)OCO4)CC2)cc1 (configuration not stated)

entry no. | 1 | 2 | 3 | 4 | 5 | 6 | 7 | 8
IMPase Li cell | 14.7%[38.3 µM] | 8.3% | 20.1%[38.3 µM] | -13.9%[38.3 µM] | 11.6% | . | 13.1% | 39.0%[activator][38.3 µM]
CBFb-RUNX1 inh | 2.9% | -10.0% | 0.3% | 25.2% | -4.0% | -10.2% | ? | 2.4%
HTT aggregate | -28.7% | ? | 6.7% | -3.2% | ? | . | -27.7% | -10.5%
Epigenetic derep | -2.0% | 0.0% | 1.0% | 0.0% | -0.8% | . | 1.6% | -1.0%
L3MBTL1 inh | . | -1.3% | . | 15.2% | ? | . | 15.5% | .
Luc counter | -5.5% | 1.7% | 0.5% | -8.0% | -1.9% | . | 0.0% | -6.8%

#9 CC(C)c1nc(N2CCOCC2)c(C#N)c2c1COC(C)(C)C2
#10 COc1ccc2cc(C#N)c(SCC(=O)N3CC(=O)Nc4ccccc43)nc2c1
#11 COC(=O)c1ccc(CSc2nc3c(c(=O)n2-c2ccc(Br)cc2)SCC3)o1
#12 COc1cccc(-c2csc(NNC(=O)c3cccs3)n2)c1
#13 CCOc1cc(/C=N/NC(=O)COc2ccc(Cl)cc2)ccc1OS(=O)(=O)c1ccccc1
#14 COC(=O)c1[nH]c2cc(OC)ccc2c1NC(=O)CN1CCN(c2cccc(C)c2)C(C)C1 (configuration not stated)
#15 CCOc1ccc(OCC)c(NC(=O)CN2CCN(c3cccc(C)c3)C(C)C2)c1 (configuration not stated)
#16 CCOc1cccc(C(=O)Nc2cccc(C(=O)NC(C)(C)C)c2)c1

entry no. | 9 | 10 | 11 | 12 | 13 | 14 | 15 | 16
IMPase Li cell | 7.6%[38.3 µM] | . | 49.5%[38.3 µM] | . | 13.9%[38.3 µM] | 4.4%[38.3 µM] | 14.8%[38.3 µM] | 0.7%
CBFb-RUNX1 inh | 4.2% | 8.8% | -25.7% | -2.1% | -6.2% | -20.1% | 5.9% | 6.4%
HTT aggregate | -11.3%[9.22 µM] | -11.7%[9.22 µM] | 7.5% | 17.3%[9.22 µM] | -17.0% | ? | ? | 7.5%
Epigenetic derep | -0.5% | 5.4% | -1.6% | -2.1% | 1.4% | 0.0% | 4.2% | 1.5%
L3MBTL1 inh | 2.7% | . | . | -21.0% | . | -18.9% | -26.1% | 7.8%
Luc counter | -3.5% | . | -1.5% | . | 2.5% | 0.6% | 3.3% | -2.7%

One compound at a time, as listed above. Screens in order: IMPase Li cell, CBFb-RUNX1 inh, HTT aggregate, Epigenetic derep, L3MBTL1 inh, Luc counter
Listed for `COC(=O)c1ccc(CSc2nc3c(c(=O)n2-c2ccc(Br)cc2)SCC3)o1` : 49.5%[38.3 µM], -25.7%, 7.5%, -1.6%, ., -1.5%
Listed for `CCOc1ccc(OCC)c(NC(=O)CN2CCN(c3cccc(C)c3)C(C)C2)c1` (configuration not stated) : 14.8%[38.3 µM], 5.9%, ?, 4.2%, -26.1%, 3.3%

Going on with the list.
#17 CCSc1cc(N2CC(C)OC(C)C2)nc(-c2ccccc2Cl)n1 (configuration not stated)
#18 O=C(Nc1nc2cc3c(cc2s1)OCO3)c1ccc(N2C(=O)CCC2=O)cc1
#19 c1ccc(C(c2ccccc2)N2CCN(Cc3nnnn3C3CCCC3)CC2)cc1
#20 Cc1ccc(-c2nc3[nH]c(=O)cc(NC(=O)c4cccs4)n3n2)cc1
#21 CC(C)=C1C2CCC1C(C(=O)Nc1sc(C)c(-c3ccc(C(C)C)cc3)c1C(N)=O)C2C(=O)O (configuration not stated)
#22 COc1ccc(OC)c(C2NC(=O)NC(C)=C2C(=O)Nc2ccc(C)cc2C)c1 (configuration not stated)
#23 COc1ccc(NS(=O)(=O)c2ccc(NC(=S)NC(=O)/C=C/c3ccc(C)cc3)cc2)nn1
#24 COc1ccc(C(=O)NNC(=O)OC(C)(C)C)cc1

entry no. | 17 | 18 | 19 | 20 | 21 | 22 | 23 | 24
IMPase Li cell | 52.8%[activator][38.3 µM] | . | 12.2%[38.3 µM] | . | 12.0% | -15.6%[38.3 µM] | 7.5% | .
CBFb-RUNX1 inh | 7.8% | 6.4% | 0.2% | 7.2% | -26.3% | 15.7% | -7.2% | 5.2%
HTT aggregate | -6.4% | 0.9%[9.22 µM] | ? | -40.7%[9.22 µM] | -24.5% | 18.2% | 13.5% | -2.2%[9.22 µM]
Epigenetic derep | -6.3% | 2.1% | 0.0% | 3.8% | 2.0% | -1.3% | -1.1% | -1.0%
L3MBTL1 inh | . | . | -2.5% | . | -7.5% | ? | 0.7% | .
Luc counter | -1.7% | . | -0.3% | . | 2.0% | -5.2% | 1.4% | .

#25 COC(=O)c1sc(-c2ccc(Cl)cc2)cc1NC(=O)c1ccccc1C(=O)O
#26 CCC(=O)N1CCN(c2ccccc2NC(=O)COc2cccc(C)c2)CC1
#27 Clc1ccc(-c2nnc3sc(-c4ccccn4)nn23)cc1
#28 COCCNC(=O)c1ccc(N2CCCCC2)c(NS(=O)(=O)c2ccc(C)cc2)c1
#29 O=C(Nc1ccc(F)cc1)Nc1sccc1-c1nc2ccccc2s1
#30 CC1=C(C(=O)OCC2CCCO2)C(c2cccc(C(F)(F)F)c2)C2=C(CC(c3ccco3)CC2=O)N1 (configuration not stated)
#31 CCOC(=O)c1cnc(C(C)(C)C)[nH]c1=O
#32 COCC(C)Nc1ncnc2c1cnn2-c1ccc(Cl)cc1 (configuration not stated)

entry no. | 25 | 26 | 27 | 28 | 29 | 30 | 31 | 32
IMPase Li cell | . | 26.6%[38.3 µM] | 0.4%[38.3 µM] | 8.5% | . | 19.9%[38.3 µM] | 3.5% | .
CBFb-RUNX1 inh | 5.7% | ? | -2.9% | 4.4% | 1.8% | 17.5% | -3.8% | 10.1%
HTT aggregate | -12.8%[9.22 µM] | 9.8% | 3.0% | 8.7% | 7.4%[9.22 µM] | ? | -5.3% | .
Epigenetic derep | -0.5% | -2.1% | 0.0% | -3.9% | ? | 0.8% | 1.7% | 0.0%
L3MBTL1 inh | . | 34.5%[activator][11.4 µM] | 1.9% | -5.5% | . | . | 9.8% | .
Luc counter | . | -4.6% | -4.8% | -0.2% | . | 16.1% | -0.6% | .

#33 CCOC(=O)c1c(NC2=NS(=O)(=O)c3ccccc32)sc2c1CCC(C)C2 (configuration not stated)
#34 CC(C)Oc1ccc(-c2nc(NCC3CCCO3)c3ccccc3n2)cc1 (configuration not stated)
#35 Cc1ccc(C2C3=C(NCCN=C3c3ccccc3)C(=O)N2c2ccccc2)cc1 (configuration not stated)
#36 CCCCN(CCCC)C(=O)c1sc2nc(N3CCOCC3)c3c(c2c1N)CCCC3
#37 CCn1c(SCC(=O)Nc2nc3ccccc3s2)nnc1-c1ccc(Br)cc1
#38 C=CCSc1nnc(NC(=O)c2ccc(S(=O)(=O)NCC3CCCO3)cc2)s1 (configuration not stated)
#39 CCN(C(=O)c1cc2c(=O)[nH]c3ccc(C)cc3c2s1)c1ccc(F)cc1
#40 CC1=C(OC(=O)c2ccccc2)C(C)(C)C(c2ccccc2)OC1=O (configuration not stated)

entry no. | 33 | 34 | 35 | 36 | 37 | 38 | 39 | 40
IMPase Li cell | -3.5% | . | 6.8%[38.3 µM] | . | -108.2%[38.3 µM] | 14.0%[38.3 µM] | . | 37.9%[activator][38.3 µM]
CBFb-RUNX1 inh | 2.5% | 1.9% | -1.0% | 5.8% | -2.9% | 1.0% | 3.5% | 2.9%
HTT aggregate | -3.6% | -27.4%[9.22 µM] | -9.5% | -5.9%[9.22 µM] | -2.9% | -0.3% | 24.9%[9.22 µM] | 5.9%
Epigenetic derep | 2.5% | -0.1% | 2.2% | -3.2% | 3.2% | 1.2% | -1.2% | -2.6%
L3MBTL1 inh | 15.0% | -0.2% | . | 2.7% | . | . | -4.3% | .
Luc counter | 0.8% | . | -6.1% | . | 19.3% | 4.9% | . | 0.1%

#41 COC(=O)c1ccc(-c2ccc(C3C4C=CCC(C)C4C(=O)N3Cc3ccccc3)c(F)c2)cc1 (configuration not stated)
#42 Cc1c(NC(=O)c2ccc3c(c2)OCO3)cccc1-c1nc2ccccc2o1
#43 CC(=O)C1=C(O)C(=O)N(CCC(=O)O)C1c1ccc(Cl)cc1Cl (configuration not stated)
#44 CCN(CC)C(=O)c1[nH]cnc1C(=O)N[C@@H](Cc1ccccc1)C(=O)OCc1ccccc1
#45 CCCCCSc1nc(N2CCOCC2)c2c(c1C#N)CC(C)(C)OC2
#46 CC(C)(C)CC(=O)Nc1ccccc1N1CCN(c2ccccc2)CC1
#47 Cn1c(SCc2cc(=O)n3cc(Br)ccc3n2)nnc1C1COc2ccccc2O1 (configuration not stated)
#48 Cc1cc(NC(=S)N(CCN2CCOCC2)Cc2ccccc2F)ccc1Cl

entry no. | 41 | 42 | 43 | 44 | 45 | 46 | 47 | 48
IMPase Li cell | . | -18.5%[38.3 µM] | -29.4%[38.3 µM] | 6.6% | 19.0%[38.3 µM] | 9.4% | ? | 6.0%
CBFb-RUNX1 inh | 2.2% | 5.9% | 0.6% | -4.2% | 9.8% | 2.7% | -14.8% | 0.4%
HTT aggregate | . | ? | 9.0%[9.22 µM] | -4.7%[9.22 µM] | 12.8%[9.22 µM] | -16.1% | 0.0% | -0.4%
Epigenetic derep | . | -0.7% | -5.9% | -0.1% | 0.8% | -1.1% | 0.5% | 2.1%
L3MBTL1 inh | . | -1.9% | . | -1.7% | 3.0% | . | -7.8% | .
Luc counter | . | 5.6% | 2.2% | . | -3.0% | 0.6% | -3.2% | -0.3%

#49 COc1ccc(-n2c(-c3cccc(OC)c3)nc(=S)c3c2CCCC3)cc1
#50 COc1cccc(-c2nnc3sc(-c4cccs4)nn23)c1
#51 CCOC(=O)N1CCN(c2nc(SC)nc3sc4c(c23)CC(C)(C)OC4)CC1
#52 NC(=S)N/N=C/c1ccccc1OCc1cccc(Cl)c1
#53 Cc1ccc(CNC(=O)CSc2nc(N3CCCCC3)nc(N3CCCCC3)n2)cc1

entry no. | 49 | 50 | 51 | 52 | 53
IMPase Li cell | 7.94µM* | ? | 19.7%[38.3 µM] | 5.9%[38.3 µM] | 11.2%
CBFb-RUNX1 inh | 2.4% | 8.7% | 7.1% | -14.5% | 7.8%
HTT aggregate | 4.1% | -24.3% | 1.1% | 17.4% | ?
Epigenetic derep | 2.1% | 2.7% | 1.0% | ? | -2.2%
L3MBTL1 inh | -3.6% | 2.6% | . | -15.2% | 2.4%
Luc counter | -2.1% | -2.5% | -5.0% | -1.1% | -2.6%

Source: PubChem BioAssay

A portion of the library, so the mix of outcomes need not match the whole.
